High-throughput results from PubChem.
Cruzain noTriton = blocks cruzain activity in detergent-free assay; Potency, µM, without a hit: max response, negative = inhibition, usual class: inhibitors; 2.3% of 200,000 active; AID 1476; purified cruzain, Z-FR-AMC fluorescence, no detergent; active means well fitted curve in the direction sought with a large enough effect; inconclusive means small, poorly fitted or top-dose-only effect, or another doubt; inactive means no such curve, though single readings can be large; an effect the other way counts as inactive or inconclusive;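 further: plate controls were enzyme without inhibitor for no effect and buffer without enzyme for full effect; nearly all actives have a fitted effect of over 40% in size; top concentration of the series not given in the record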
Target sequence (P25779 123-467 limits assumed): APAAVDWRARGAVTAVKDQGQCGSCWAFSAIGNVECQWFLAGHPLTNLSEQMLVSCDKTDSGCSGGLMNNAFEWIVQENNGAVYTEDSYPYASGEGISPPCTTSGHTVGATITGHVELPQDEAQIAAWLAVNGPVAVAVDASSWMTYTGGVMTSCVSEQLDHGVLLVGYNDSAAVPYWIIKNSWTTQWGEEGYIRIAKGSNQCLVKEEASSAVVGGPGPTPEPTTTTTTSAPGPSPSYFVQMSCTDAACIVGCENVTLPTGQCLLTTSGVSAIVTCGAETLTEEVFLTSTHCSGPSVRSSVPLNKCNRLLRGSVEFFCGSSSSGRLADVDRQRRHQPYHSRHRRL
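Purified cruzain at 1.5 nM, pre-incubated 15 min with compound at room temperature in 100 mM sodium acetate pH 5.5, 5 mM DTT, 0.00005% Triton X-100. Reaction started with 2 uM Z-FR-AMC; AMC fluorescence increase over 60 s gives rate.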
Marburg entry inh = Marburg virus entry inhibition; 1.8% of 300,000 active; Marburg virus pseudotyped entry inhibition, cell reporter; control for the full effect not named in the record; about a third of the inactives were read at about 46 µM; Potency, µM (titrated, usually from 37.8 µM), inactives show top-dose activity change, negative = inhibition, hits mostly inhibitors; active = well fitted inhibition curve with a large enough effect; inconclusive = small, poorly fitted or top-dose-only effect, or effect the other way; inactive = flat fitted curve, though single readings scatter; tested in HEK293 cells; about a fifth of its hits are not listed in these tables; further: on the % scale 0 is the no-effect control and ±100 the full control effect; luciferase read-out
SARS PLpro yeast = blocks SARS-CoV papain-like protease in a yeast assay; S. cerevisiae expressing SARS-CoV PLpro, growth rescue; control for the full effect not named in the record; Potency, µM (series often up to 32.9 µM), for inactives: at the top dose activity, positive = growth rescue; 0.19% of 330,000 active; AID 485353; further: 0% is about no effect; nearly all actives have a fitted effect of over 55% in size; growth read by luminescence after 48 h
RE007 growth inh = less growth of the S. pombe RE007 Vpr strain; S. pombe RE007 Vpr strain, BacTiter-Glo ATP luminescence, 24 h; control for the full effect not named in the record; Potency, µM (doses to about 92.2 µM), for inactives: top-dose activity change, negative = less growth; 0.21% of 360,000 active; AID 651644; active = well fitted falling curve with a large enough effect; inconclusive = small, poorly fitted or top-dose-only effect; inactive = no such curve, though single readings can be large or run the other way;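 further: on the % scale 0 is the no-effect control and ±100 the full control effect; nearly all actives have a fitted effect of over 50% in size; the assay follows cell death caused by Vpr and the record does not say whether a fall means rescue or toxicity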
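Fission yeast RE007 carrying one integrated HIV-1 vpr copy, seeded at OD 0.01 in PMG+AL medium with 23 nL pinned compound. Grown 24 h at 30 degrees; viability read by BacTiter-Glo luminescence after 5 min.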
2A StopGo = lowers the luciferase signal of an FMDV 2A StopGo reporter; 1.2% of 410,000 active; human cells with a luciferase reporter of 2A StopGo recoding; control for the full effect not named in the record; Potency, µM (titrated, usually from 57.9 µM), for inactives: top-dose signal change, negative = less light; AID 1159524; active = well fitted falling curve with a large enough effect; inconclusive = small, poorly fitted or top-dose-only effect; inactive = no such curve, though single readings can be large or run the other way; tested in HEK293T cells; further: on the % scale 0 is the no-effect control and ±100 the full control effect; nearly all actives have a fitted effect of over 45% in size; luciferase light after 4 h
NS1 function inh = blocks influenza NS1 protein function. S. cerevisiae slowed by influenza A NS1, growth recovery by OD600. Potency, µM (titrated, usually from 46.1 µM), for the others: at the top dose activity, positive = more growth. 0.4% of 270,000 active; further: actives are rising curves; nearly all actives have a fitted effect of over 50% in size
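A cell-based growth assay was used: compounds that relieve NS1-induced slow growth of budding yeast raise OD600. Assay medium was yeast nitrogen base with ammonium sulphate and -URA supplement, pH 6.0, with 2% galactose.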
Lassa entry inh = blocks Lassa virus binding to or entry into cells; Lassa virus pseudotype entry inhibition, cell reporter; control for the full effect not named in the record; AID 540256; 1.2% of 300,000 active; Potency, µM (top dose mostly 37.9 µM), inactives show at the top dose activity change, negative = inhibition, most hits filed as inhibitors; active means well fitted inhibition curve with a large enough effect; inconclusive means small, poorly fitted or top-dose-only effect, or effect the other way; inactive means flat fitted curve, though single readings scatter; tested in HEK293 cells; further: on the % scale 0 is the no-effect control and ±100 the full control effect; nearly all actives have a fitted effect of over 50% in size; luciferase read-out
Cruzain Triton = cruzain (T. cruzi) inhibition with detergent | purified cruzain, Z-FR-AMC fluorescence, 0.01% Triton | Potency, µM, for the others: max response, negative = inhibition, most hits filed as inhibitors | P25779 | 0.43% of 200,000 active; active means well fitted curve in the direction sought with a large enough effect; inconclusive means small, poorly fitted or top-dose-only effect, or another doubt; inactive means no such curve, though single readings can be large; an effect the other way counts as inactive or inconclusive;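 further: plate controls were neutral wells for no effect and buffer without enzyme for full effect; nearly all actives have a fitted effect of over 40% in size; top concentration of the series not given in the record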
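Cysteine protease activity tested under reducing, mildly acidic conditions (100 mM sodium acetate pH 5.5, 5 mM DTT) plus 0.01% Triton X-100. Cruzain 1.5 nM; substrate Z-FR-AMC 2 uM; 15 min compound preincubation at room temperature.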
Starred values were filed as active, the others as inactive; ? = inconclusive; · = no result given; & = joins results of further samples; [ ] = another dose, or the depositor's remark. Unless noted, the call rests on the fitted dose curve; in most records, active means well fitted rising curve with a large enough effect; inconclusive means small, poorly fitted or top-dose-only effect; inactive means no such curve, though single readings can be large or run the other way. Potency means the concentration at half of the fitted maximal effect. Not a hit list. Share with any hit: about 4.7%.

SMILES | Cruzain noTriton | Marburg entry inh | SARS PLpro yeast | RE007 growth inh | 2A StopGo | NS1 function inh | Lassa entry inh | Cruzain Triton
C=CCOc1ccc(/C=C(\C#N)C(=O)Nc2ccccn2)cc1 | · | · | 1% | -8% | 11% | 0% | · | ·
O=C1c2ccccc2NC(c2cn[nH]c2-c2ccc(Cl)cc2)N1O (stereo not given) | -2% | ? | 7.9µM* | -13% | 14µM* | 19% | ? | -4.6%
COc1ccc(NC(=O)CC(C(=O)O)C(C)c2ccccc2)cc1 (stereo not given) | · | 21%[46.1 µM] | 2% | 9% | -11% | 24% | 8%[46.1 µM] | ·
COc1cc2c(cc1OC)C(c1cccc([N+](=O)[O-])c1)=NCC2 | · | ? | 11% | 6% | -14% | 9% | ? | ·
O=C(COc1ccc2ccccc2c1)NN1C(=O)c2ccccc2C1=O | 1% | ? | -2% | 11% | -3% | 4% | -10% | -1.9%
COCCNC(=O)CSc1cc(=O)n(C)c2cc(Cl)ccc12 | · | -22%[46.1 µM] | 1% | -5% | 4% | · | ? | ·
Cc1ccc(NC(=S)NCCN2CCOCC2)cc1 | -1% | 0% | 4% | 3% | -15% | ? | 9% | 12%
Cc1ccc(NC(=O)CCc2c(C)nc3ncnn3c2C)cc1 | 3% | -17% | 2% | 18%[3.69 µM] | -6% | -6% | -6% | 1.9%
O=C(CSc1nc2ccccc2n1CCc1ccccc1)N1CCOCC1 | 9% | -5% | -14% | -6% | -3% | -11% | -2% | 0.5%
Cn1nc(-c2ccccc2)c(C(=O)NC(C(=O)O)c2ccccc2)c1Cl (stereo not given) | · | 8%[46.1 µM] | 0% | ? | 2% | -5% | 5%[46.1 µM] | ·
C[N+]1(C2CCC3CCC2C3O)CCCC1 (stereo not given) | 1% | 7% | 8% | -24% | -9% | 0% | -10% | -1.4%
O=C1COc2ccc(C(=O)COC(=O)Cc3ccccc3F)cc2N1 | · | 3%[46.1 µM] | 2% | -1% | 33%[activator] | · | ? | ·
Cc1ccc2oc(=O)cc(CN3CCC(C)CC3)c2c1 | -14% | 26% | 6% | -4% | 36%[activator] | -10% | ? | -5.3%
O=C(C1CCN(Cc2cc(Cl)ccc2O)CC1)N1CCN(Cc2ccccc2)CC1 | -4% | ? | 3% | -2% | ? | -8% | -26% | 8.0%
CCCCc1nc2cc(C(=O)N3CCC(OC)CC3)ccc2o1 | · | · | -4% | 0% | 30%[activator] | 1% | · | ·
CNc1c(NS(=O)(=O)c2ccc3c(c2)CCCC3)c(=O)oc2ccccc12 | · | 21%[46.1 µM] | -2% | 3% | 4% | -9% | ? | ·
CC(C)(C)NC(=O)CCSc1nc(-c2ccc3c(c2)OCO3)cc(C(F)(F)F)n1 | 2% | ? | · | · | ? | · | -7%[46.1 µM] | -21%
Cc1ccc(C)c(C(=O)OCC(=O)N(C)c2ccccc2)c1 | · | -17%[46.1 µM] | -3% | -14% | -2% | -8% | ? | ·
CCCCOCCCNCC(=O)Nc1ccc(S(N)(=O)=O)cc1 | · | 8%[46.1 µM] | 0% | -15% | -10% | · | -2% | ·
CCn1c(=O)cc(OCC(=O)N2CCN(c3ccc(C(C)=O)cc3)CC2)c2ccccc21 | 10% | 5%[46.1 µM] | · | · | -12% | · | 15%[46.1 µM] | 0.1%
O=C(Nc1cccc(C(F)(F)F)c1)c1cc2ccc3cccnc3c2[nH]1 | -14% | · | · | · | 20% | · | ? | -0.2%
Oc1ccc(Nc2nc(-c3cccnc3)cs2)cc1 | · | ? | 4% | -9% | 6% | -3% | ? | ·
CNC(=O)N(O)C1N(c2ccccc2)C(=S)SC1(C)C (stereo not given) | -17% | ? | 18% | -11% | -7% | 14% | 4% | -0.8%
COc1cccc(-c2csc(NC(=O)C3CC3)n2)c1 | 14% | · | -1% | 0% | 34%[activator] | -61% | · | -1.9%
O=C(CCS(=O)(=O)c1ccc(Br)cc1)NCCc1ccccc1 | · | · | -1% | 21% | -12% | 0% | · | ·
Next structures.
SMILES | Cruzain noTriton | Marburg entry inh | SARS PLpro yeast | RE007 growth inh | 2A StopGo | NS1 function inh | Lassa entry inh | Cruzain Triton
CC1(C)S[C@@H]2[C@H](NC(=O)Cc3ccccc3)C(=O)N2[C@H]1C(=O)O | 6%&-6%&-8% | -5% | -5%&1% | 4%[18.4 µM] | -18%&-4% | 3%&1% | 4% | 1.4%&-1.7%&-0.7%
O=c1cc(-c2ccccc2Cl)c2c([nH]1)CCC2 | -8% | · | -1% | 1% | -24% | -9% | · | -4.5%
CCOC(=O)c1c(/N=C/N(C)C)sc(/C=N/Nc2ccccc2)c1-c1ccccc1 | -11% | 18µM* | 28% | 4% | -19% | 2% | -4% | -4.0%
Cc1cccc(CNC(=O)c2cnc3sc(N4CCCCCC4)nn3c2=O)c1 | 9% | · | · | · | -1% | · | ? | 6.9%
O=C(N/N=C/c1cc([N+](=O)[O-])ccc1O)c1cccc(N2CCCC2=O)c1 | · | ? | 22% | -2% | 11% | -1% | ? | ·
COc1ccc(C)cc1S(=O)(=O)N1CCN(C(=O)c2ncoc2-c2cccc(F)c2)CC1 | · | ? | 2% | 4% | ? | -47% | ? | ·
CCCN(CCC)[C@@H]1CCc2c(F)ccc(O)c2C1 | 5% | ? | · | · | · | 0% | · | -3.4%
CC(C)CCNC(=O)c1ccc(Cn2c(=S)[nH]c3ccccc3c2=O)cc1 | · | ? | 0% | 4% | -2% | -1% | ? | ·
Oc1c(C(c2ccccc2F)N2CCN(c3ccccc3F)CC2)sc2nc(-c3ccco3)nn12 (stereo not given) | -4% | · | · | · | 2% | · | -3%[46.1 µM] | -7.3%
O=C(Nc1ccc2oc(-c3ccncc3)nc2c1)c1ccccc1 | · | 3% | 1% | -2% | 10% | · | -26% | ·
COCCCn1c(SCC(=O)Nc2ccc(F)cc2)nc2c(sc3ccccc32)c1=O | -3% | · | · | · | 3% | · | 15%[46.1 µM] | 2.0%
O=C(C1=C(O)C(=O)N(Cc2cccnc2)C1c1ccccn1)c1cccs1 (stereo not given) | · | -12%[46.1 µM] | 2% | 5% | 16% | 4% | 12%[46.1 µM] | ·
O=S(=O)(Cc1cc(Oc2ccccc2)nc(-c2ccccc2)n1)c1ccccc1 | -6% | -28%[46.1 µM] | -2% | 3% | -26% | 21% | 2% | -2.0%
CCCCNC(=O)C1C2C=CC3(CN(Cc4ccccc4Cl)C(=O)C13)O2 (stereo not given) | 2% | ? | 5% | -1% | -7% | 4% | 0% | 4.8%
CCc1cc2c(=O)[nH]cnc2s1 | -10% | 3% | 8% | 3% | -16% | -6% | 10% | 0.5%
CCCn1c(=NC(=O)c2ccco2)c(C(=O)OCC)cc2c(=O)n3ccccc3nc21 | 4% | -14% | 1% | -8% | · | -2% | -11% | -6.4%
C=CCNC(=O)C12CCC(C)(C(=O)C1Br)C2(C)C (stereo not given) | 1% | -7% | 5% | · | -10% | 18% | 8% | -2.0%
Cc1cc(C)n(CC(=O)N/N=C/c2ccco2)n1 | -13% | 2% | 0% | -7% | -11% | 8% | -6% | 1.2%
CCOC(=O)/C=C1\SCC(=O)N1CC(=O)NC(C)c1ccccc1 (stereo not given) | -18% | 0% | -16% | 16% | 0% | 11% | 0% | -1.3%
CCOc1ccc(-c2cc(C(=O)NCc3ccccc3)c3c(-c4ccc(CC)cc4)[nH]nc3n2)cc1 | 4% | · | · | · | -27% | · | 19%[46.1 µM] | 0.0%
CC(=O)Nc1ccc(NC(=O)CSC2=NS(=O)(=O)c3cc(F)ccc3N2)cc1 | · | 7%[46.1 µM] | 0% | 0% | -8% | · | 15% | ·
O=C(Nc1ccc2c(c1)OCO2)c1ccc(S(=O)(=O)N2CCCC2)cc1 | · | -12%[46.1 µM] | -2% | -23% | -8% | -2% | · | ·
Cc1ccc(S(=O)(=O)N2CCN(c3ncccn3)CC2)c(C)c1 | · | · | -7% | 8% | -22% | -24% | · | ·
CCOC(=O)c1ccc(NC(=S)NCCCN2CCN(C3CCCCC3)CC2)cc1 | · | ? | -3% | 11% | -24% | · | ? | ·
CC(C)CN1CCN(Cc2cccn2-c2ccccn2)CC1CCO (stereo not given) | · | · | 1% | 0% | -22% | -2% | · | ·
O=C(CN1CCN(Cc2ccc3c(c2)OCO3)CC1)N1CCc2[nH]c3ccc(F)cc3c2C1 | 1% | ? | 2% | -17% | 0% | 11% | -29% | 3.6%
O=C(NCCN1C(=O)S/C(=C\c2ccccc2F)C1=O)C1=COCCO1 | · | ? | 3% | -11% | -10% | · | ? | ·
Cc1ccc(C)c(N(C(=O)CNC(=O)c2ccco2)C(C(=O)NCC2CCCO2)c2ccccc2)c1 (stereo not given) | · | -6% | -1% | 6% | -17% | -1% | 3% | ·
COc1ccc(C/C(C)=N/NC(=O)c2cc(C)oc2C)cc1 | -10% | ? | 10% | -3% | 3% | 15% | 16% | -0.7%
O=C1OCCC1Sc1nc2ccccc2n1-c1ccccc1 (stereo not given) | 4% | -16%[46.1 µM] | 2% | 15% | -10% | -6% | -13% | -3.7%

4 of these compounds in another layout:
mol,Cruzain noTriton,Marburg entry inh,SARS PLpro yeast,RE007 growth inh,2A StopGo,NS1 function inh,Lassa entry inh,Cruzain Triton
COc1ccc(C/C(C)=N/NC(=O)c2cc(C)oc2C)cc1,-10%,?,10%,-3%,3%,15%,16%,-0.7%
O=C(C1=C(O)C(=O)N(Cc2cccnc2)C1c1ccccn1)c1cccs1 (stereo not given),·,-12%[46.1 µM],2%,5%,16%,4%,12%[46.1 µM],·
CCOC(=O)c1ccc(NC(=S)NCCCN2CCN(C3CCCCC3)CC2)cc1,·,?,-3%,11%,-24%,·,?,·
CCCn1c(=NC(=O)c2ccco2)c(C(=O)OCC)cc2c(=O)n3ccccc3nc21,4%,-14%,1%,-8%,·,-2%,-11%,-6.4%
